# Bioassay records as filed in PubChem.
# HPGD inh: qHTS Assay for Inhibitors of HPGD (15-Hydroxyprostaglandin Dehydrogenase); AID 894, 2007; Potency, µM, for the others: at the top dose activity change, negative = inhibition, most hits filed as inhibitors; purified HPGD, NADH fluorescence kinetic, PGE2 substrate; hit rate 4.3% among 150,000; 15-hydroxyprostaglandin dehydrogenase [NAD(+)] (Homo sapiens), P15428; active = well fitted inhibition curve with a large enough effect (not every such curve was filed as active); inconclusive = small, poorly fitted or top-dose-only effect, or another doubt; inactive = no such curve, though single readings can be large or run the other way;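 note: top concentration of the series not given in the record; plate controls included wells without enzyme; inactives centre near -10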
# Target sequence (P15428 whole entry, looked up): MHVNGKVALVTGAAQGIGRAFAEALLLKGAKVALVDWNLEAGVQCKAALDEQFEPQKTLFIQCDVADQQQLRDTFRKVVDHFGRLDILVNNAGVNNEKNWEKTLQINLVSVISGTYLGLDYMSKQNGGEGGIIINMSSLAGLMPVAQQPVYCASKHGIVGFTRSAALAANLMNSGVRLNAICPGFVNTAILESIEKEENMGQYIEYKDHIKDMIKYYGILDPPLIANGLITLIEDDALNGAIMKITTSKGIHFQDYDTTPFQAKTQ
#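 NADH formation kinetics: reaction with 30 uM PGE2 and 1 mM NAD+ (final), 20 nM enzyme, Tris-HCl pH 8 with Tween 20, after 15 min compound preincubation at room temperature. Fluorescence change, last versus first of five reads.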
# * hit, by the source's call; u = inconclusive. % is set by controls: 0 for no effect and ±100 for the full control effect; potency is the fitted concentration of half-maximal effect. Only part of the results is shown; rates above refer to the full screens.
SMILES	HPGD inh
CC(=O)OCC1=C(C(=O)O)N2C(=O)C(NC(=O)Cc3cccs3)C2SC1 (stereo not drawn)	20µM*
CC1(C)N=C(N)NC(Nc2ccc(Br)cc2)=N1	-9.3%
Cc1ccc(CN2CCN(CC(=O)NCCCN3CCN(c4ccc(F)cc4)CC3)C2=O)cc1	-16.9%
CC(=O)N1CCN(C(=S)c2ccc([N+](=O)[O-])cc2)CC1	31.6µM*
O=C(COC(=O)Cc1ccccc1[N+](=O)[O-])NCc1ccccc1Cl	-18.8%
CC1(C)CC(=O)C(CCC(=O)c2ccccc2)C(C)(C)N1 (stereo not drawn)	-1.5%
CCN(CC(=O)Nc1ccc(S(N)(=O)=O)cc1)S(=O)(=O)c1cc(C)ccc1OC	-7.1%
Cc1cc(C(=O)COC(=O)CC2Sc3ccccc3NC2=O)c(C)n1-c1ccc(Br)cc1 (stereo not drawn)	-13.4%
COc1ccccc1NC(=O)CSCC(=O)N1c2ccccc2CCc2ccccc21	-14.4%
O=C(Oc1ccc2c(c1)OCO2)C12CC3CC(CC(C3)C1)C2	-15.0%
CO/N=C(\C(=O)N[C@@H]1C(=O)N2C(C(=O)[O-])=C(C[N+]3(C)CCCC3)CS[C@@H]12)c1csc(N)n1	-11.5%
Cn1c(=O)n(CCN2CCOCC2)c(=O)c2c1nc1n2CCCN1c1ccccc1	-14.2%
COCCCNCCOCCOc1ccc(C)cc1[N+](=O)[O-]	-1.4%
CC1CC(=O)C2=C(C1)Nc1ccccc1N=C2 (stereo not drawn)	-4.3%
COc1ccc(NS(=O)(=O)c2cccc(C(=O)N/N=C(\C)c3ccncc3)c2)cc1	-16.1%
CCOC(=O)Cc1nnc2c(Nc3ccccc3F)nc3nonc3n12	-1.5%
Cc1ccc(C(=O)NCc2ccco2)cc1[N+](=O)[O-]	-10.1%
COc1ccccc1NCCC(=O)OCC(=O)NC1CCCC(C)C1C (stereo not drawn)	-5.8%
N#Cc1cc([N+](=O)[O-])cnc1N(CCO)CCO	-14.1%
COc1ccc(Oc2c(C)oc3cc(OC(=O)N4CCOCC4)ccc3c2=O)cc1	-1.4%

# New compounds follow.
SMILES	HPGD inh
COc1ccc(C(=O)Oc2ccc(/C=N/NC(=O)c3ccccc3OC)cc2[N+](=O)[O-])cc1	-21.4%
O=C(NC(=S)Nc1cccc([N+](=O)[O-])c1)c1ccco1	-3.3%
CC(C)CN1C(=S)SC(C)(C)C1n1oc(=O)n(-c2ccc(Cl)cc2)c1=O (stereo not drawn)	-18.6%
O=C(CCCCn1c(=O)c2ccccc2n(CC(=O)NC2CCCC2)c1=O)NC1CCCC1	-24.3%
CCC1Oc2ccc(C)cc2N(CC(=O)N(Cc2ccc(C)o2)C2CCCC2)C1=O (stereo not drawn)	u
COc1ccc(CN(Cc2ccc(OC)cc2)S(=O)(=O)c2ccc(-n3cnnn3)c(C)c2)cc1	-15.5%
CCS(=O)(=O)NCCc1csc(-c2ccccc2)n1	-19.9%
Nc1nc(OCc2ccccc2)c2[nH]cnc2n1	-14.0%
Cc1ccc(C(NC(=O)N2CCOCC2)=C(Cl)Cl)cc1F	-14.8%
O=C1C2C3C=CC(c4ccccc4)(C2C(=O)N1c1cccc(Cl)c1)C1C(=O)N(c2cccc(Cl)c2)C(=O)C31 (stereo not drawn)	-17.0%
CCc1nc2ccc(C)cc2c(C(=O)Oc2cccc3cccnc23)c1C	-14.5%
CCN(C(=O)c1cc2cc(OC)ccc2oc1=O)c1cccc(C)c1	u
Cc1ccc(S(=O)(=O)/N=C(\CN2CCOCC2)N2CCCC2)cc1	2.6%
CCn1ncc(C2=NOC(C(=O)Nc3cccc(C(C)=O)c3)C2)c1C (stereo not drawn)	-6.4%
CN(CCOc1ccc(-c2ccn(S(=O)(=O)c3ccc(Cl)cc3)n2)cc1)c1ccccn1	-14.1%
CC1(C)CC(=O)c2c(O)cc(OCc3ccc(Br)cc3)cc2O1	u
N#Cc1ccccc1Sc1ccccc1C(=O)OCC(=O)NC1CCS(=O)(=O)C1 (stereo not drawn)	-9.1%
O=c1ccc(Br)c[nH]1	-8.7%
Cc1ccccc1Nc1nnc(SCC2CCCCO2)s1 (stereo not drawn)	-19.0%
O=C(NCc1ccco1)c1ccc(CN2CCOCC2)cc1	-15.3%

# Ordered by the number under HPGD inh (lowest first): 7 of the compounds above.
SMILES	HPGD inh
Cc1ccccc1Nc1nnc(SCC2CCCCO2)s1 (stereo not drawn)	-19.0%
CC(C)CN1C(=S)SC(C)(C)C1n1oc(=O)n(-c2ccc(Cl)cc2)c1=O (stereo not drawn)	-18.6%
O=C1C2C3C=CC(c4ccccc4)(C2C(=O)N1c1cccc(Cl)c1)C1C(=O)N(c2cccc(Cl)c2)C(=O)C31 (stereo not drawn)	-17.0%
O=C(NCc1ccco1)c1ccc(CN2CCOCC2)cc1	-15.3%
Cc1ccc(C(NC(=O)N2CCOCC2)=C(Cl)Cl)cc1F	-14.8%
CCc1nc2ccc(C)cc2c(C(=O)Oc2cccc3cccnc23)c1C	-14.5%
CCn1ncc(C2=NOC(C(=O)Nc3cccc(C(C)=O)c3)C2)c1C (stereo not drawn)	-6.4%

# Next section
SMILES	HPGD inh
COc1ccc(/C=C2\SC(=O)N(CCNC(=O)C3CCN(S(=O)(=O)c4cccs4)CC3)C2=O)cc1	-15.3%
COCC(C)n1c(C)cc(C(=O)COC(=O)c2n[nH]c3ccccc23)c1C (stereo not drawn)	-8.0%
O=C(c1cnn2c(C(F)F)cc(-c3ccccc3)nc12)N1CCSCC1	10µM*
c1ccc(CSc2nnc(-c3c[nH]c4ccccc34)o2)cc1	-14.3%
Cc1ccc(-n2c(C)cc(/C=C(\C#N)C(=O)NCC3CCCO3)c2C)cc1 (stereo not drawn)	u
COCC(=O)N1CCC2(CC1)CCN(c1ccccc1)CC2	1.0%
CC(C)C[C@@H](CC(=O)N[C@@H](CCC(=O)O)CC(=O)O)NC(=O)[C@@H]1CCCC[C@H]1NC(=O)C[C@@H](NC(=O)C[C@H](Cc1c[nH]c2ccccc12)NC(=O)[C@@H]1CCCC[C@H]1N)C(C)C	-3.6%
Cc1nc(NCCO)c2nc(-c3ccccc3)n(CCN(C)C)c2n1	u
Cc1ccc(C(=O)N/N=C/c2ccc([N+](=O)[O-])s2)cc1	u
O=C(CN1C(=O)C2C3c4ccccc4C(c4ccccc43)C2C1=O)Nc1cccc(C(=O)O)c1 (stereo not drawn)	-3.0%
CCCNc1cc(=O)n(C)c(=O)n1C	-7.9%
COc1ccc(NC(=O)c2ccccc2)cc1NS(=O)(=O)c1ccc(F)cc1	-27.0%
Cc1cc(C)nc(SCc2ccccc2C#N)n1	-12.7%
Cc1cc(Nc2ccc(Br)cc2)n2nc(C)nc2n1	-15.0%
COc1cccc(C=Nc2ccccc2C#N)c1O	-7.2%
Cc1cccnc1NC(=O)C(C)Oc1ccccc1 (stereo not drawn)	-28.1%
CCOc1ccc2ccccc2c1C(=O)N[C@@H]1C(=O)N2[C@@H]1SC(C)(C)[C@@H]2C(=O)O	-1.4%
CN(C)S(=O)(=O)c1cccc(NC(=O)Cc2ccc(Cl)cc2)c1	-4.8%
CCC(C)NC(=O)c1cnn2c1NC(c1cccs1)CC2C(F)(F)F (stereo not drawn)	-7.0%
Clc1cc2nc3ccccn3c2cc1Cl	u

# (more compounds)
SMILES	HPGD inh
CCOc1ccc(OCC)c(S(=O)(=O)NNC(=O)c2c(C)nc3ccccn23)c1	1.9%
CC(C)(C)N(Cc1ccccc1)C(=O)c1ccc2c(c1)OCCO2	-6.9%
COc1ccc(CCNC(=O)Cn2nnc(-c3cccs3)n2)cc1OC	-4.7%
COc1ccc2c(c1)C(=O)[C@H](OC(=O)N[C@H](C)C1CCCCC1)[C@@H](c1ccc(OC)c(Br)c1)O2	-2.8%
CS(=O)(=O)N1CC(C(=O)NC2CCCC2)Oc2ccc(Cl)cc21 (stereo not drawn)	-8.4%
Cc1ccc2c(CC(=O)N3CCN(S(=O)(=O)c4cccs4)CC3)coc2c1	-14.9%
C=CCN(C(=O)CSc1nc2[nH]ncc2c(=O)n1-c1ccccc1OC)c1ccccc1	-2.2%
O=C(Cc1ccc(Cl)cc1)Nc1ccc(NC(=O)c2ccccc2)cc1	u
CNC(=S)N(C)c1ccccc1	-8.2%
CC(C)(C)CC(=O)NC(=S)Nc1ccccc1C(F)(F)F	25.1µM*
CCOC(=O)c1sc(NC(=O)COc2ncnc3ccccc23)c(C(=O)OCC)c1C	u
CCN(CC)CCCN1C(=O)C(=O)/C(=C(/O)c2ccc(Cl)cc2)C1c1ccccn1 (stereo not drawn)	-17.8%
Oc1ccc(C2N=C(c3ccccc3)NC(c3ccccc3)=N2)cc1	-11.9%
O=C(NC1CCCCC1)C(c1ccccc1)N(C(=O)c1cccs1)c1ccc2c(c1)OCO2 (stereo not drawn)	-7.4%
O=C(O)c1ccc(Cl)c(S(=O)(=O)NCc2ccco2)c1	3.0%
O=C(N/N=C/c1cccc(OC(=O)c2ccco2)c1)c1ccc(F)cc1	-3.6%
CCC(=O)NCc1cc(-c2nn(C)c(=O)c3ccccc23)ccc1C	-29.8%
COc1ccc(/C=N/n2c(C)cc(C)c(C(N)=O)c2=O)cc1	-4.0%
Cc1nc2ncnn2c(C)c1CCC(=O)NCc1ccccc1	0.6%
CCCOc1ccc(C2NC(=O)NC(c3ccccc3)=C2C(C)=O)cc1OCC (stereo not drawn)	-10.4%

# Next entries
SMILES	HPGD inh
CCOC(=O)C1CCN(C(=O)c2ccc(SC)cc2OC)CC1	2.7%
Cc1nn(-c2ncc(C(F)(F)F)cc2Cl)c(=O)n1-c1cccc(Cl)c1	-3.0%
Cc1cc(OC(=O)N2CCOCC2)cc(C)c1Cl	-5.5%
CC(=O)Nc1ccc(N/C(C)=C/C(=O)c2cccnc2)cc1	u
CSCC[C@H](NC(=O)NCc1ccc(F)cc1)C(=O)O	-16.2%
Cc1ccc(S(=O)(=O)N2CCN(c3nc(C(C)C)c4c(c3C#N)CC(C)(C)OC4)CC2)cc1	u
CC(C)(C)c1ccc(C(=O)NCCC(=O)NCc2ccco2)cc1	-15.3%
NC1=NC(=O)C(Cc2cccc(Cl)c2)S1 (stereo not drawn)	-7.5%
Cc1ccc(C(=O)OCC(=O)NCCC2=CCCCC2)s1	-20.9%
Cc1nnc(C)c2c(C)n(C(C)c3ccccc3)c(C)c12 (stereo not drawn)	-14.7%
CS(=O)(=O)N(CC(=O)N1CCCCC1)c1ccc2c(c1)OCO2	-9.1%
C=CCN(c1ccccc1)S(=O)(=O)c1ccc(Cl)c(C(=O)OCC(=O)c2[nH]c(C)c(C(C)=O)c2C)c1	-11.1%
Cc1ccc(C(=O)c2ccc(O)cc2)cc1C	-10.0%
Cc1ccc(S(=O)(=O)N2CCN(C(=O)C3CCCCC3)CC2)cc1	1.6%
N#Cc1nc(N)nc(N(c2ccccc2)c2ccccc2)n1	-3.7%
CNC(=S)N1CCN(C(=O)C2CCCO2)CC1 (stereo not drawn)	1.2%
CC(CN1CCOCC1)OC(=O)c1ccc(Br)cc1 (stereo not drawn)	-1.7%
CCC1=C2CC[C@H]3C(=O)N(C)C(=O)[C@H]3[C@H]2[C@@]2(Cc3ccccc3)C(=NCCOC)OC(=O)N2C1=O	-6.1%
O=C1c2ccccc2-c2c1cccc2C(=O)N(CCO)CCO	-1.3%
Cc1cccc(NC(=O)C2C(c3ccccc3)C2(Cl)Cl)c1C (stereo not drawn)	-2.5%

# (next part)
SMILES	HPGD inh
Cc1cc(=O)oc2cc(OC(=O)CCN3C(=O)c4ccccc4C3=O)ccc12	u
CC(=O)Nc1cccc(NS(=O)(=O)c2cccc3nsnc23)c1	-2.6%
CCOC(=O)c1c(-c2ccc(C)cc2)csc1NC(=O)C1CCCO1 (stereo not drawn)	-16.3%
Cc1cc(C)c(NC(=O)CCCC(=O)O)c(Cl)c1	-3.4%
c1ccc(Cn2c(-c3ccco3)nc3nc4ccccc4nc32)cc1	u
CCC(C)n1c(S(=O)(=O)O)nc2ccccc21 (stereo not drawn)	-9.2%
CC(C)Oc1ccc(C(=O)/C(=C\c2cccs2)c2nc3ccccc3o2)cc1	-13.4%
O=C(COc1ccc(Cl)cc1)Nc1ccccc1C(=O)NCc1ccco1	-10.9%
CCCOc1ccc(C2c3c(oc4cc(C)c(C)cc4c3=O)C(=O)N2CCCN(C)C)cc1OCC (stereo not drawn)	-11.8%
CCOC(=O)N1CCN(S(=O)(=O)c2cc(OCC(=O)NC3CCCCC3)c(C)cc2Cl)CC1	-8.3%
COC(=O)C1CCN(C(=O)c2ccc(Cl)c(S(=O)(=O)NCc3cccnc3)c2)CC1	-2.0%
COc1ccc(Cl)cc1NC(=O)CN1CCC(n2nnc3cc(C)ccc32)CC1	-4.5%
C=CCn1c(SCC(=O)Nc2nc(C)cs2)nnc1C(CO)NC(=O)c1ccccc1 (stereo not drawn)	-5.6%
CC(C)C(C(=O)Nc1ccc2c(c1)OCO2)N1C(=O)c2ccccc2C1=O (stereo not drawn)	-9.0%
Cc1ccc(NC(=O)C2CCN(S(C)(=O)=O)CC2)cc1	-0.6%
Cc1c(NC(=O)C2CCCN2S(=O)(=O)c2ccccc2)c(=O)n(-c2ccccc2)n1C (stereo not drawn)	-6.2%
COC(=O)c1ccc(C)c(NC(=O)CCSc2ccccc2)c1	-19.1%
CC1CCCCN1CC(=O)Nc1sc2c(c1C#N)CCC2 (stereo not drawn)	-19.9%
Cc1cccc(CSc2nnc(N)n2-c2ccccc2)c1	2.0%
CCN(CC)c1ccc(/C=N/N(c2ccccc2)c2ccccc2)c(O)c1	-12.5%
